Anaer choline gr = inhibitors of anaerobic choline-dependent gram-negative bacterial growth | calls only | Gram-negative bacterium anaerobic choline minimal medium, absorbance growth; hits give low values; many inactives read as strong as hits in the columns shown | 55,000 tested, 0.2% active | AID 1963822;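 active = growth z-score on choline under -2 at 7 or 20 h with little or no fall on glycerol, limits in tiers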;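 also: stock transfer was 300 nL into about 50 µL; the organism is E. coli; final concentration not given here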
Anaer choline gr early = also measured in Anaer choline gr; calls as there; z-score; measured here: choline growth z-score, timepoint 1;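 score of optical density at 7 h as mean of two plates; lower means less growth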
The depositor's hits bear a star; i = inactive; & = joins results of further samples. The list is partial; the hit share may differ from the screen's.

Anaer choline gr,Anaer choline gr early,SMILES
i,0.66,C#C[C@@]1(OC(C)=O)CC[C@H]2[C@@H]3CCC4=CC(OC(C)=O)CC[C@@H]4[C@@H]3CC[C@@]21C (some centres not stated)
i,-0.8,CCC(C)NC(=O)CN(C)S(=O)(=O)c1ccc2c(c1)CCCC(=O)N2 (configuration not stated)
i,-0.04,CCCS(=O)(=O)N1CCN(c2cc(N(C)C)nc(C)n2)CC1
i,0.21,COc1ccc(-c2nn3c(-c4cc(C(C)C)[nH]n4)nnc3s2)c(OC)c1
i,1.6,CCc1ccc(C2=C(C)C(=O)N(CC(=O)Nc3ccc(Br)c(C)c3)S2(=O)=O)cc1
i,1.1,CCc1ccc(NC(=O)CCn2c(C(F)(F)F)nc3cc(S(=O)(=O)N(CC)CC)ccc32)cc1
i,0.23,Clc1cccc(-c2nnc(-c3nc(NC4CCCC4)c4ccccc4n3)o2)c1
i,0.24,Clc1ccc(-c2ccc(CNCc3ccncc3)o2)c(Cl)c1
i,-0.01,CC(C)c1cc(C2CCCN2C(=O)C(C)(C)C)no1 (configuration not stated)
i,0.63,CCCCSc1nc2c(c(=O)[nH]1)C(c1sccc1C)C(C(=O)OC(C)C)=C(C)N2 (configuration not stated)
i,-0.41,Cc1cc(C2CCCN2Cc2cn[nH]c2-c2ccc(C)c(C)c2)no1 (configuration not stated)
i,-2.7,CC(=O)N1CCc2c(C)cc(Cl)cc21
i,-0.3,Cc1ccc(S(=O)(=O)N2C(=O)CCC2C(=O)N2CCCC2)cc1C (configuration not stated)
i,-1.5,Cc1ccc2[nH]cc(CCNC(=O)CN3C(=O)c4cccnc4Sc4ccccc43)c2c1
i,-0.09,NC(N)=NC(=O)c1nc(Cl)c(N2CCCCCC2)nc1N

Anaer choline gr,Anaer choline gr early,SMILES
i,0.46,O=C(NCc1ccc(Cl)cc1)c1ccc(-n2nnc3cccnc32)cc1
i,-2.7,CN1CCN(C(=O)C2CC(c3ccc(F)cc3)=NO2)CC1 (configuration not stated)
i,0.24,COCCn1c(CNC(=O)C2CC2)nc2cccnc21
i,1.4,COC(=O)c1ccc(C2C3=C(CC(c4ccc(Cl)cc4)CC3=O)Nc3onc(C)c32)cc1 (configuration not stated)
i,0,CN(CCCNC(=O)C1CCCN(c2nn3c(=O)c4c(nc3s2)CCCC4)C1)C1CCCCC1 (configuration not stated)
i,-0.11,Cc1c(CNC(=O)c2cc(-c3ccc4c(c3)OCO4)nc3ccccc23)cnn1C
i,0.8,CC(C)Cn1cnc2nc(CSc3ccccc3NC(=O)Nc3cccc(Cl)c3)cc(=O)n21
i,0.41,Cc1ccc(Oc2cc3c(cc2S(=O)(=O)N(C)C)C(=O)Nc2ccccc2O3)cc1C
i,-0.38,c1ccc(N2CCN(Cc3nc(-c4ccc(N5CCSCC5)nc4)no3)CC2)nc1
i,0.09,CCCn1c(=O)[nH]c2cc(-c3noc(-c4cnccn4)n3)ccc21
i,-0.41,COCCCN(CCC(=O)N1CCNCC1)C(=O)c1ccc(C)cc1
i,2.7,O=S(=O)(c1ccc2c(c1)CCCC2)N1CCCC1c1nc(-c2ccccc2)no1 (configuration not stated)
i,-0.4,CCn1nccc1C1CCCN1C(=O)c1ccn(C)n1 (configuration not stated)
i,-0.84,Cc1c(C(=O)N2CCN(c3cccc(Cl)c3)CC2)sc2nc(-c3ccccc3)cn12
i,0,NS(=O)(=O)c1cc(C(=O)O)cc(N2CCCC2)c1Oc1ccccc1

Anaer choline gr,Anaer choline gr early,SMILES
i,0.91,Cc1ccc(-n2ccn3cc(-c4ccc5c(c4)OCO5)nc3c2=O)cc1C
i,-0.77&-0.17,COc1cc(NS(=O)(=O)c2ccc(N)cc2)nc(OC)n1
i,-0.42,Cc1ccc(S(=O)(=O)c2cnc(N3CCN(C4CCCCC4)CC3)nc2N)cc1C
i,0.03,CCOc1ccc(-n2c(=O)[nH]cc(C(=O)Nc3cccc(Cl)c3)c2=O)cc1
i,-0.35,CN(C)C(=O)CSc1nnc2n(CCC(=O)NC3CCCCC3)c(=O)c3ccccc3n12
i,-1.9,CC(C)=CCN1CCNC(=O)C1CC(=O)O (configuration not stated)
i,0.13,C=CCOC(=O)C1=C(C)Nc2nc(SCC(C)C)[nH]c(=O)c2C1c1sccc1C (configuration not stated)
i,1.6,Cn1nc(C(=O)Nc2ccccc2)c2c1-c1ccccc1SC2
i,0.97,CCc1nn(CC(=O)N2CCC(Cc3ccccc3)CC2)c(=O)c2cc3occc3n12
i,-0.8,Cc1cc(Cl)ccc1OCCCC(=O)NO
i,-0.84,Cc1nn(-c2nc3ccccc3[nH]2)c2c1C(c1ccc(F)c(Br)c1)CC(=O)N2 (configuration not stated)
i,-0.44,CCC(=O)N1c2ccccc2NC2=C(C(=O)CC(C)(C)C2)C1c1ccccc1OC (configuration not stated)
i,-0.18,CCOc1ccccc1Nc1c(CC)c(C)nc2ncnn12
i,0.34,O=C(NC1CCCc2ccccc21)c1ccc(Nc2ccnc(-c3ccccc3)n2)cc1 (configuration not stated)
i,1.8,COc1ccc(C2CC(=O)N(c3cc(C)ccc3C)C(=O)C2)cc1OC

Anaer choline gr,Anaer choline gr early,SMILES
i,0.11,COc1ccc(OCC(=O)Oc2cc(-c3ccccc3)c3oc(=O)sc3c2)cc1
i,0.02,CCc1nn2cc(-c3ccccc3OC)nc2s1
i,1.2,CCOC(=O)c1ccc(N2C(=O)c3scc(-c4ccc(Cl)cc4)c3S2(=O)=O)cc1
i,1.8,O=C(NCc1ccc(F)cc1)C1CCCN(c2ccnc(-c3ccc(F)cc3)n2)C1 (configuration not stated)
i,1.4,CCOCCCNC(=O)N1Cc2c(sc3c2CCCC3)-n2cccc2C1c1ccc(N(C)C)cc1 (configuration not stated)
i,-0.06&0.52&0.25,CCOc1nc2cccc(C(=O)O)c2n1Cc1ccc(-c2ccccc2-c2nn[nH]n2)cc1
i,0.64,COc1ccccc1NC(=O)c1oc2ccccc2c1NC(=O)C1c2ccccc2Oc2ccccc21
i,-0.43,CCN(CC)c1ncnc2c1cnn2C
i,0.7,O=C(NCC(F)(F)F)c1cccn2c(-c3ccc(F)cc3)nnc12
i,0.36,O=C(Nc1ccccc1)c1ccc(=O)n(Cc2ccccc2)n1
i,-0.02,CCCS(=O)(=O)c1nc2ccc(NS(=O)(=O)c3ccc(C(C)C)cc3)cc2s1
i,-0.98,O=C(NCc1cccnc1)c1c(-c2ccccc2)nc2n1CCS2(=O)=O
i,0.76,CN(Cc1ccccc1)C(=O)CSc1nnc(-c2ccc(Cl)cc2)o1
i,-0.83,Cc1ccc2[nH]c(C)c(C(O)CN3CCc4ccccc4C3)c2c1 (configuration not stated)
i,1.2,COc1ccc(-c2nc(CCNC(=O)c3ccc(OC(C)C)cc3)cs2)cc1

Anaer choline gr,Anaer choline gr early,SMILES
i,0.65,CCN(CC)C(=O)Cc1c(C(=O)O)c(C)cn1CC
i,-0.61,CC(NC(=O)C1CCN(c2ncnc3c2oc2ccccc23)CC1)c1ccccc1 (configuration not stated)
i,0.25,Cc1cc(C(=O)N2CCN(c3ccccc3F)CC2)n[nH]1
i,-0.09,CC(=O)Nc1ccccc1Sc1nc(Cl)nn1Cc1ccccc1
i,3,Cc1ccc(-n2nc(C)c3c2NC(=O)CC3C(=O)c2ccccc2)cc1Cl (configuration not stated)
i,-0.08,CCOC(=O)c1cc(C)nc2c1c(=O)n(Cc1nc(-c3ccccc3)oc1C)c(=O)n2C
i,-0.24,COc1ccc(S(=O)(=O)NC2CCN(C(=O)c3cncc(Br)c3)CC2)cc1
i,0.38,CCCS(=O)(=O)NCCc1c(C)nn(C)c1C
i,-1,CC(C)Cn1c(=O)c2sccc2n2c(=O)n(CC(=O)NC3CCCC3)nc12
i,0.52&0.43&0.24,Cc1cn([C@H]2C=C[C@@H](CO)O2)c(=O)[nH]c1=O
i,-0.72,O=C(NCCN1CCOCC1)C(=O)NCc1n[nH]c(=O)c2ccccc12
i,-1.3,Cc1cccc(N2CCN(C(=O)CCCN3C(=O)c4ccccc4Sc4ncccc43)CC2)c1C
i,-0.38,CN(C)C(=O)c1csc2nc(-c3ccc(NC(=O)Cc4ccccc4F)cc3)cn12
i,0.19,CCc1ccc(NC(=O)c2c[nH]n3c(=O)cc(C)nc23)cc1
i,-0.07,Cc1nn(C)c(C)c1CNC(=O)C1CCCN1c1nnc(N2CCCC2=O)s1 (configuration not stated)

Anaer choline gr,Anaer choline gr early,SMILES
i,-0.23,Cn1c(-c2nnc(SCC(=O)NCc3nc4ccccc4n3C)o2)cc2ccccc21
i,-1.2,COCCNC(=O)CSc1nnc(-c2cc3ccccc3n2C)o1
i,0.74,COc1ccc2c(c1)CCc1c(C(=O)N3CCC(C)CC3)noc1-2
i,0.63,CCN(CC)S(=O)(=O)c1ccc2c(c1)nc(CN(C)C(=O)c1ccc(Cl)cc1)n2C
i,0.48,Clc1ccc(-c2ccc(CNc3nn[nH]n3)o2)c(Cl)c1
i,-0.81,O=C(Nc1ccc2c(c1)OCO2)c1ccc(Nc2ccc(-c3ccccc3)nn2)cc1
i,0.55,COc1ccc(-c2nc(-c3cc4c(C)nn(-c5ccccc5)c4s3)no2)c(OC)c1
i,-0.1,NCCCCCCNS(=O)(=O)c1cccc2c(Cl)cccc12
i,0.45,COCCCN1C(=O)c2[nH]nc(-c3cc(C)ccc3O)c2C1c1ccc(F)cc1 (configuration not stated)
i,-0.95,Cc1nc2c(c(C)nn2-c2ccccc2)c(C)c1CCC(=O)NCC1CCN(CC(C)C)C1 (configuration not stated)
i,-0.05,COC(=O)c1c(C)oc2ccc(N(C(=O)c3ccc(C)cc3)S(=O)(=O)c3ccc(Cl)cc3)cc12
i,0.59,Cn1nc(C(=O)NCCc2ccccc2)c2c1-c1ccccc1SC2
i,0.26,COc1cc(OC)c(NC(=O)N2CCN(c3nc4cc(Br)ccc4n4cccc34)CC2)cc1Cl
i,2.8,Cc1nn2c(NCCOCCO)cc(C(C)(C)C)nc2c1-c1ccc(F)cc1
i,-1.4,O=C(c1ccc(F)cc1)N1CCc2cc(CNS(=O)(=O)c3ccc4c(c3)CCCC4)ccc21

Quoted from the listing, 17 compounds:
Anaer choline gr,Anaer choline gr early,SMILES
i,0.19,CCc1ccc(NC(=O)c2c[nH]n3c(=O)cc(C)nc23)cc1
i,-0.07,Cc1nn(C)c(C)c1CNC(=O)C1CCCN1c1nnc(N2CCCC2=O)s1 (configuration not stated)
i,-0.23,Cn1c(-c2nnc(SCC(=O)NCc3nc4ccccc4n3C)o2)cc2ccccc21
i,-1.2,COCCNC(=O)CSc1nnc(-c2cc3ccccc3n2C)o1
i,0.74,COc1ccc2c(c1)CCc1c(C(=O)N3CCC(C)CC3)noc1-2
i,0.63,CCN(CC)S(=O)(=O)c1ccc2c(c1)nc(CN(C)C(=O)c1ccc(Cl)cc1)n2C
i,0.48,Clc1ccc(-c2ccc(CNc3nn[nH]n3)o2)c(Cl)c1
i,-0.81,O=C(Nc1ccc2c(c1)OCO2)c1ccc(Nc2ccc(-c3ccccc3)nn2)cc1
i,0.55,COc1ccc(-c2nc(-c3cc4c(C)nn(-c5ccccc5)c4s3)no2)c(OC)c1
i,-0.1,NCCCCCCNS(=O)(=O)c1cccc2c(Cl)cccc12
i,0.45,COCCCN1C(=O)c2[nH]nc(-c3cc(C)ccc3O)c2C1c1ccc(F)cc1 (configuration not stated)
i,-0.95,Cc1nc2c(c(C)nn2-c2ccccc2)c(C)c1CCC(=O)NCC1CCN(CC(C)C)C1 (configuration not stated)
i,-0.05,COC(=O)c1c(C)oc2ccc(N(C(=O)c3ccc(C)cc3)S(=O)(=O)c3ccc(Cl)cc3)cc12
i,0.59,Cn1nc(C(=O)NCCc2ccccc2)c2c1-c1ccccc1SC2
i,0.26,COc1cc(OC)c(NC(=O)N2CCN(c3nc4cc(Br)ccc4n4cccc34)CC2)cc1Cl
i,2.8,Cc1nn2c(NCCOCCO)cc(C(C)(C)C)nc2c1-c1ccc(F)cc1
i,-1.4,O=C(c1ccc(F)cc1)N1CCc2cc(CNS(=O)(=O)c3ccc4c(c3)CCCC4)ccc21

Going on with the list:
Anaer choline gr,Anaer choline gr early,SMILES
i,0.25,Nc1ncnc2c1ncn2[C@@H]1O[C@H](CO)C[C@H]1O
i,0.02,Cc1cccc(OCC(=O)Nc2ccc3c(c2)NC(=O)CO3)c1
i,0.96,COc1ccccc1Oc1cc(-c2cccc(C(=O)Nc3ccc(C)cc3C)c2)ncn1
i,0.22,CS(=O)(=O)N1CCCN(C(=O)C2CC2)CC1
i,0.08,CC(=O)N1CCc2c(sc(NC(=O)CS(=O)(=O)c3ccc(C)cc3)c2C(N)=O)C1
i,-0.74,COC(=O)c1ccccc1NC(=O)CSc1nnc2c3ccccc3nc(-c3cccc(C)c3)n12
i,-0.78,CCCC[C@H](C)C[C@H](O)/C=C/[C@@H]1[C@@H](CCCCCCC(=O)O)[C@@H](O)C[C@H]1O
i,-1,O=C1c2cccnc2C(=O)N1CCc1ccc(S(=O)(=O)N2CCN(C3CCCCC3)CC2)cc1
i,-0.71,O=C1CCCN1c1ccc(S(=O)(=O)Nc2noc3ccccc23)cc1
i,-2,Cc1sc(-c2nc(-c3cccc(F)c3)no2)cc1S(=O)(=O)N1CCc2ccccc2C1
i,-1,OCCNCc1ccc(-c2cc(Cl)cc(Cl)c2)o1
i,-1.8,O=C(NC1CC1)C1(c2cccc(F)c2)CC1
i,1.1,Cc1[nH]c(C)c(S(=O)(=O)N(C)Cc2ccco2)c1-c1nc(C2CC2)no1
i,-0.42,Cc1ccc(NC(=O)Nc2ccc(SCc3cc(=O)n4c(ncn4C(C)C)n3)cc2)c(Cl)c1
i,-0.5,COc1ccc(N2CC(C(=O)NCc3nnnn3-c3ccc(F)c(F)c3)CC2=O)cc1 (configuration not stated)

Anaer choline gr,Anaer choline gr early,SMILES
i,0.69,CC(=O)Nc1c(-c2ccc(C)cc2)c(C)nn1-c1ccc(C(=O)N2CCc3ccccc3C2)cc1
i,-0.71,COc1ccc(Nc2nc(C)c(NC(=O)CC(C)C)c(Nc3ccc(OC)cc3)n2)cc1
i,0.1,COCCCNC(=O)C1CCCN(c2ncc(-c3ccc(F)cc3)cn2)C1 (configuration not stated)
i,-1.9,CCOc1ccc(C2CC(=O)Nc3c2c(C)nn3-c2ccc3nncn3n2)cc1 (configuration not stated)
i,-0.28,CC1(C)C(=O)N(CC(=O)Nc2cccc(Br)c2)c2ccccc21

Screens (PubChem BioAssay)
